Compound activity from PubChem BioAssay.
RGS16-Gao HTS – regulators of human RGS16-Galphao interaction | O15492+P09471 | bead-based flow cytometry RGS16-Galphao binding, fluorescence; actives lie on both sides | binding response (% of control), % at 10 µM | hit rate 0.38% among 220,000 | AID 1441;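 active = below 25% or above 175%, edge rows of some plates excepted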;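 note: Galphao activated by GDP with aluminum fluoride before binding; 100% = wells without compound and 0% = beads without RGS; some results beyond the cut were filed as inactive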
GALR2 agonist – agonists of human galanin receptor 2 (GALR2); O43603; GALR2-expressing cells, agonist activation read-out; activation, %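 (tested at 5 µM)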; hit rate 0.48% among 140,000; AID 803;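 active = above mean plus 3 SD of all compounds, about 5% in these data, not always enough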;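 note: 0% = vehicle buffer wells and 100% = reference agonist at full effect; tested in CHO reporter cells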
HSV augment – HSV replication enhancement; HSV replication augmentation in cells, fold increase; maximum fold increase; hit rate 0.005% among 220,000;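 active = peak rise of 1.5-fold or more in the series; tested in PC3 cells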;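 note: first round at 10 µM; read as green reporter fluorescence; hits show the peak of a series up to 25 µM; 1 = signal of infected wells without compound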
INS promoter inh – TRM-6 insulin promoter activity inhibition. TRM-6 cells (human fetal islet line), insulin promoter-eGFP reporter, imaging; reporter expression induced with tamoxifen. inhibition, % at 2 µM. hit rate 0.9% among 130,000. AID 1273;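 active = inhibition above the mean plus 3 SD, with well images judged a real hit on visual review, cut at about 60% in these data, passing the limit was not always enough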
PKD1 inh – inhibitors of human PKD1 kinase | Q15139 | PKD1 kinase fluorescence polarization assay | inhibition, %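 (about 10 µM by stock and volumes)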 | hit rate 0.056% among 200,000 | AID 797;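 active = inhibition of 50% or more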;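 note: controls were vehicle for no effect and a reference inhibitor for full effect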
Target sequence (Q15139 whole entry, looked up): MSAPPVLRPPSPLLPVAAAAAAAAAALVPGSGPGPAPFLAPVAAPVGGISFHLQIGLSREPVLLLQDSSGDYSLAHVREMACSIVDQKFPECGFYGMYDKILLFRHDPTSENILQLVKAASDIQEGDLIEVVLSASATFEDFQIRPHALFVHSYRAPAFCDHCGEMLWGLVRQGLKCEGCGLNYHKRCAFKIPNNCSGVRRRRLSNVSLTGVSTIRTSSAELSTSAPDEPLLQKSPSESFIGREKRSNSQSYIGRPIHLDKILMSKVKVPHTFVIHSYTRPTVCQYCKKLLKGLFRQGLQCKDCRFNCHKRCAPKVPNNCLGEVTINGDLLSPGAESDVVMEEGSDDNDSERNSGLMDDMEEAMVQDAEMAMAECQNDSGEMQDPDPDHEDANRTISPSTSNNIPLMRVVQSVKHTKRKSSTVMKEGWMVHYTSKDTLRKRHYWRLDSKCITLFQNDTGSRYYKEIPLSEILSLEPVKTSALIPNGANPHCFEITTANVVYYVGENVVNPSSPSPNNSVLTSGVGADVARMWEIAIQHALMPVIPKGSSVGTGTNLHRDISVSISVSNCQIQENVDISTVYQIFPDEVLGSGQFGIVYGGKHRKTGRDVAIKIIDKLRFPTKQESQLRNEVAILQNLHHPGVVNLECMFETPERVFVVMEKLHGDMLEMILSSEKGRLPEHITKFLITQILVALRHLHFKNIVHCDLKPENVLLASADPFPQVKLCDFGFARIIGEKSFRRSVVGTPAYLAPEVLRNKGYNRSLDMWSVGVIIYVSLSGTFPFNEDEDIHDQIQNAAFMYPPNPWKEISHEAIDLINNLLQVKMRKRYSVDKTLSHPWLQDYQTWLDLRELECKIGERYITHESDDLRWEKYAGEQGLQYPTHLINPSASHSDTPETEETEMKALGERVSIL
INS promoter inh cell count – recorded beside INS promoter inh, whose call it bears; normalized cell count, %; measured here: cell count, toxicity; reference of the scale not given here;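 cells exposed to compound for 48 h; stained nuclei by imaging scaled within each plate; lower means fewer cells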
HSV augment primary fold – also measured in HSV augment; calls as there; fold increase; compound at 10 µM; measured here: primary screen fold increase 10 uM; tested in PC3 cells;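 GFP signal in the first replicate; 1 = infected wells without compound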
The depositor's hits bear a star; i = inactive; / = no result given.

item | SMILES | RGS16-Gao HTS | GALR2 agonist | HSV augment | HSV augment primary fold | INS promoter inh | INS promoter inh cell count | PKD1 inh
1 | COc1ccc(S(=O)(=O)N(CC(=O)N2CCN(C)CC2)c2ccc(C)cc2)cc1OC | 98 | -1.8 | i | 1 | 14 | 133 | 3
2 | CC(=O)Cc1c(C(=O)O)c(C)nn1-c1ccccc1 | 67 | / | i | 0.91 | -6 | 90 | -7
3 | Cc1nc(NCCCn2ccnc2)c2ccccc2n1 | 105 | -0.8 | i | 0.91 | 4 | 125 | -5
4 | CCOC(=O)c1nc(C)n(-c2cc(Cl)ccc2Cl)n1 | 57 | -1.4 | i | 1 | 17 | 131 | -9
5 | CSc1ccc(S(=O)(=O)Nc2ccc3c(c2)OCCO3)cc1 | 108 | -0.7 | i | 0.88 | / | / | -12
6 | Nc1n[nH]c(N)c1N=Nc1ccc2c(c1)OCO2 | 99 | / | i | 1.1 | / | / | 4
7 | Cc1ccc(NC(=O)CC2Oc3ccccc3NC2=O)c(C)c1 (stereo unspecified) | 93 | -2.5 | i | 0.92 | / | / | -16
8 | COc1ccc(C2CC(c3ccccc3)Nc3nc(N)nn32)cc1 (stereo unspecified) | 104 | -2.1 | i | 0.97 | -33 | 80 | 2
9 | COc1cc(Nc2c3c(nc4ccccc24)CCCC3)cc(OC)c1OC | 103 | / | i | 0.74 | 47 | 139 | 1
10 | Cc1ccc(-c2csc(N(C)C(=O)c3c(C)nn(-c4ccccc4)c3Cl)n2)cc1 | 102 | -2.1 | i | 0.96 | / | / | 5
11 | Cc1cccc(Cn2c(C(C)(C)C)cc3cccnc32)c1 | 98 | -1.0 | i | 0.77 | / | / | 9
12 | O=C(Nc1nccs1)c1cc(N2CCOCC2)nc2ccccc12 | 100 | 0.7 | i | 0.79 | / | / | 0
13 | Cc1nc([N+](=O)[O-])c(Br)n1CC(=O)c1ccc2ccccc2c1 | 104 | -1.4 | i | 0.82 | 52 | 95 | 2
14 | O=C(CCn1c(=O)oc2ccccc21)n1c(=O)oc2ccccc21 | 109 | -1.8 | i | 0.99 | 21 | 90 | -3
15 | COc1ccc(C(N)CCc2ccco2)cc1 (stereo unspecified) | 90 | -2.3 | i | 1.1 | / | / | -4
16 | COc1nsnc1NS(=O)(=O)c1ccc(NC(=S)NC(=O)c2cccnc2)cc1 | 102 | / | i | 1.2 | / | / | -6
17 | O=C(CN1CCN(c2ccc(F)cc2)CC1)NCC1CCCO1 (stereo unspecified) | 103 | -0.9 | i | 0.9 | / | / | 3
18 | Cc1c(C(=O)OCC(C)(C)CN(C)C)oc2ccccc12 | 107 | 0.3 | i | 1 | 12 | 145 | -7
19 | O=S(=O)(NCc1cccnc1)c1ccccc1 | 104 | -1.4 | i | 0.65 | 27 | 66 | -7
20 | Cc1cc(C)n(CC(O)Cn2ccc3ccccc32)n1 (stereo unspecified) | 101 | 0.0 | i | 0.96 | 23 | 151 | -7
21 | S=C(NCc1cccnc1)Nc1cccc2ccccc12 | 111 | -0.2 | i | 1.1 | -8 | 93 | 4
22 | OCC1(Cc2ccccc2)CCCN(Cc2ccc3c(c2)OCCO3)C1 (stereo unspecified) | 96 | / | i | 1 | / | / | -5
23 | CCCCOn1c(C)c(C(C)=O)c2c3no[n+]([O-])c3ccc21 | 128 | / | i | 1.2 | -59 | 64 | 10
24 | Cc1ccc(S(=O)(=O)C2(C(=O)NC3CCCC3)CC2)cc1 | 106 | -2.5 | i | 1.1 | -320 | 50 | -8
25 | CC(=O)NC(Cc1ccccc1)C(=O)N1CCN(C(=S)NCC(C)C)CC1 (stereo unspecified) | 100 | / | i | 0.96 | / | / | -1
26 | CC(=O)Nc1nnc(-c2ccc3c(c2)CCCC3)o1 | 102 | -4.9 | i | 0.72 | / | / | -1
27 | CCOc1ccc(-n2c(Cc3cc(=O)[nH]c(=O)[nH]3)nnc2SC(C)C(=O)OC)cc1 (stereo unspecified) | 110 | 0.2 | / | / | / | / | -6
28 | COCCNC(=O)c1ccc(CS(=O)(=O)c2ccccc2)o1 | 106 | -1.7 | i | 0.8 | / | / | -6
29 | O=C(NCc1cccnc1)Nc1cccc(F)c1 | 100 | / | i | 0.98 | / | / | -2
30 | O=c1c2cnn(-c3ccc(F)cc3)c2ncn1Cc1ccc(F)cc1 | 109 | -2.4 | i | 0.92 | 38 | 135 | -5
31 | Cc1cccc(Nc2nn3c(=O)c4ccccc4nc3s2)c1 | 95 | -1.9 | i | 0.77 | / | / | 8
32 | COc1ccc(Cl)cc1-c1nc(SCC(=O)N(C)CCC#N)n[nH]1 | 105 | / | / | / | 14 | 55 | -7
33 | Cc1ccccc1CNC(=O)CN(c1cccc([N+](=O)[O-])c1)S(C)(=O)=O | 103 | / | i | 0.89 | / | / | -4
34 | CCN(CC)CC(=O)NCC1(c2ccccc2)CCCC1 | 103 | / | i | 0.97 | / | / | -5
35 | CCOC(=O)N1CCc2c(sc(NC(=O)CN3CCN(C)CC3)c2C(=O)Nc2ccccc2)C1 | 100 | / | i | 0.92 | 8 | 87 | 5
36 | Nc1nc2ccccc2cc1S(=O)(=O)c1ccccc1 | 100 | / | i | 0.96 | / | / | 4
37 | COc1cc(OC)cc(C(=O)Nc2cc(-c3cn4cccnc4n3)ccc2C)c1 | 100 | / | i | 1.1 | 0 | 102 | 6
38 | Cc1cccc(-n2c(N)c(C(=O)N3CCN(C)CC3)sc2=S)c1 | 69 | -1.8 | i | 0.96 | -42 | 42 | -6
39 | CCCC(=O)N1CC2(C)CN(C(=O)CCC)CC(CCC)(C1)C2=O | 102 | -0.1 | i | 1 | -18 | 114 | -8
40 | COc1cc(/C=N/NC(N)=S)ccc1OCc1ccc(C)cc1 | 113 | -0.6 | i | 0.85 | -18 | 107 | -11
41 | CC1=NN(c2ccccc2)C(=O)C1C(=O)C(=O)Nc1ccc(F)cc1 (stereo unspecified) | 97 | / | i | 1 | 9 | 96 | 0
42 | O=C(Nc1nc(-c2ccccc2)cs1)c1cccc([N+](=O)[O-])c1 | 1.7* | -1.4 | i | 0.87 | 28 | 113 | -5
43 | O=C(NCC1CCCO1)/C(=C\c1ccc(Cl)cc1)NC(=O)c1ccccc1 (stereo unspecified) | 100 | -1.1 | i | 1 | / | / | 6
44 | Cc1ccc(Cn2c(SCCN3CCCCC3)nc3c2c(=O)[nH]c(=O)n3C)cc1 | 100 | -0.8 | i | 0.84 | / | / | 0
45 | CCC(=O)N1CCc2cc(S(=O)(=O)CCC(=O)Nc3ccc(F)c(F)c3)ccc21 | 99 | -2.7 | i | 0.89 | -17 | 51 | 5
46 | CCC(c1nc2ccccc2c(=O)n1CCCn1ccnc1)N1C(=O)c2ccccc2C1=O (stereo unspecified) | 103 | 0.7 | i | 0.98 | 22 | 92 | 0
47 | CCC(C)NC(=O)CSc1nc(-c2cccs2)cc(C(F)(F)F)n1 (stereo unspecified) | 92 | -1.5 | i | 0.93 | 9 | 103 | -12
48 | Cc1ccc(S(=O)(=O)c2cc3cc(Br)ccc3oc2=O)cc1 | 105 | -1.5 | i | 0.74 | -22 | 115 | -6
49 | Cc1ccnc(NC(=O)COC(=O)C2COc3ccccc3O2)n1 (stereo unspecified) | 65 | -1.9 | i | 0.94 | / | / | -4
50 | CCc1ccc(NC(=O)Nc2cccc(OC)c2)cc1 | 102 | / | i | 0.93 | -105 | 155 | 1
51 | O=C(NCc1ccccc1)c1ccc(=O)[nH]n1 | 101 | -0.4 | i | 0.91 | -48 | 111 | 7
52 | CC(=O)c1c(C)nc2ccc(Cl)cn12 | 108 | -3.3 | i | 0.84 | 23 | 228 | 8
53 | CS(=O)(=O)N1CCC(Oc2ccccc2C(=O)NC2CCCCCC2)CC1 | 120 | / | i | 1.1 | / | / | 1
54 | O=c1c2ccccc2c(C=NCc2ccccn2)c(O)n1-c1ccccc1Cl | 99 | / | i | 1 | -50 | 133 | -4
55 | O=C1CC(Cc2ccc(Cl)cc2)C(=O)N1c1ccncc1 (stereo unspecified) | 98 | -2.1 | i | 0.99 | 0 | 98 | 2
56 | O=C(CCc1ccccc1)Nc1cc(NC(=O)CCc2ccccc2)cc(C(=O)O)c1 | 98 | / | i | 1 | -24 | 114 | -12

Next section.
item | SMILES | RGS16-Gao HTS | GALR2 agonist | HSV augment | HSV augment primary fold | INS promoter inh | INS promoter inh cell count | PKD1 inh
57 | O=C1CC(SC(=NCc2ccc3c(c2)OCO3)Nc2ccccc2)C(=O)N1 (stereo unspecified) | 96 | -0.5 | i | 1 | -21 | 63 | 0
58 | C=C(C)CSc1nnc(-c2ccc(C)cc2)n1N | 108 | -0.9 | i | 0.98 | -3 | 96 | -1
59 | CCCn1c(N)c(C(=O)CSc2nnnn2-c2ccc(O)cc2)c(=O)n(C)c1=O | 110 | -1.7 | i | 0.93 | / | / | 5
60 | COc1ccc(OC)c(CCNC(=O)c2ccc(CS(=O)(=O)c3ccc(Br)cc3)o2)c1 | 105 | / | i | 0.98 | / | / | -9
61 | COc1cccc(C2c3c(oc4ccccc4c3=O)C(=O)N2CCCN(C)C)c1OC (stereo unspecified) | 102 | -0.9 | i | 0.88 | -36 | 104 | -1
62 | O=C(CCNS(=O)(=O)c1ccc2c(c1)CCC(=O)N2)NCc1cccnc1 | 99 | -3.0 | i | 0.88 | -7 | 76 | -26
63 | Cn1c(Cn2c(=O)sc3ccccc32)nnc1SCC(=O)Nc1ccc2c(c1)OCO2 | 94 | 0.0 | i | 1 | / | / | -5
64 | CCN(CC)S(=O)(=O)c1cccc(C(=O)Nc2ccc(C#N)cc2)c1 | 102 | -1.1 | i | 0.88 | / | / | 2
65 | COc1ccc(CC(C(=O)Nc2cccc(F)c2)c2nn[nH]n2)c(OC)c1 (stereo unspecified) | 103 | -1.4 | i | 0.83 | -143 | 84 | -1
66 | Nn1c(-c2ccccc2Cl)nnc1-c1ccccc1Cl | 108 | -1.9 | i | 1.1 | 62 | 136 | -7
67 | Fc1ccc(-c2cc3nc(-c4ccccc4)cc(N4CCN(CCN5CCOCC5)CC4)n3n2)cc1 | 96 | 2.7 | i | 0.53 | -9 | 111 | -12
68 | O=C(Oc1ccccc1O)c1cccc2ccccc12 | 118 | / | i | 0.81 | / | / | -9
69 | CCN1CCN(C(=O)C(=O)c2c(C)[nH]c3ccccc23)CC1 | 102 | / | i | 0.82 | / | / | -1

Among those listed so far, 12 have an aryl methoxy group.
item | SMILES | RGS16-Gao HTS | GALR2 agonist | HSV augment | HSV augment primary fold | INS promoter inh | INS promoter inh cell count | PKD1 inh
1 | COc1ccc(S(=O)(=O)N(CC(=O)N2CCN(C)CC2)c2ccc(C)cc2)cc1OC | 98 | -1.8 | i | 1 | 14 | 133 | 3
8 | COc1ccc(C2CC(c3ccccc3)Nc3nc(N)nn32)cc1 (stereo unspecified) | 104 | -2.1 | i | 0.97 | -33 | 80 | 2
9 | COc1cc(Nc2c3c(nc4ccccc24)CCCC3)cc(OC)c1OC | 103 | / | i | 0.74 | 47 | 139 | 1
15 | COc1ccc(C(N)CCc2ccco2)cc1 (stereo unspecified) | 90 | -2.3 | i | 1.1 | / | / | -4
16 | COc1nsnc1NS(=O)(=O)c1ccc(NC(=S)NC(=O)c2cccnc2)cc1 | 102 | / | i | 1.2 | / | / | -6
32 | COc1ccc(Cl)cc1-c1nc(SCC(=O)N(C)CCC#N)n[nH]1 | 105 | / | / | / | 14 | 55 | -7
37 | COc1cc(OC)cc(C(=O)Nc2cc(-c3cn4cccnc4n3)ccc2C)c1 | 100 | / | i | 1.1 | 0 | 102 | 6
40 | COc1cc(/C=N/NC(N)=S)ccc1OCc1ccc(C)cc1 | 113 | -0.6 | i | 0.85 | -18 | 107 | -11
50 | CCc1ccc(NC(=O)Nc2cccc(OC)c2)cc1 | 102 | / | i | 0.93 | -105 | 155 | 1
60 | COc1ccc(OC)c(CCNC(=O)c2ccc(CS(=O)(=O)c3ccc(Br)cc3)o2)c1 | 105 | / | i | 0.98 | / | / | -9
61 | COc1cccc(C2c3c(oc4ccccc4c3=O)C(=O)N2CCCN(C)C)c1OC (stereo unspecified) | 102 | -0.9 | i | 0.88 | -36 | 104 | -1
65 | COc1ccc(CC(C(=O)Nc2cccc(F)c2)c2nn[nH]n2)c(OC)c1 (stereo unspecified) | 103 | -1.4 | i | 0.83 | -143 | 84 | -1
